From PubChem
CtBP-E1A blk: qHTS Assay for Inhibitors of the CtBP/E1A Interaction. AlphaScreen GST-E1A/His-CtBP binding, 1536-well; active compounds read low; control for the full effect not named in the record. activity change, % (no concentration beside the values). CtBP / adenovirus E1A interaction (AlphaScreen). actives 0.49% (n = 340,000); in the data active means activity change below about -65%; inconclusive means about -30% to -65%; inactive means above about -30%; note: % is set by controls: 0 for no effect and ±100 for the full control effect
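In 5 uL wells, 23 nL compound meets equimolar GST-E1A and His-CtBP (5X stock 125 nM each) for 2 h, 37 °C. Beads (5X, 50 ug/mL) then 1 h, 37 °C, dark.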
Six1-Eya2 blk: qHTS Assay for Inhibitors of the Six1/Eya2 Interaction. AID 651725, 2012. Homeobox protein SIX1 (Homo sapiens) + Protein phosphatase EYA2 (Homo sapiens), …. activity change, % (concentration not given with the values). AlphaScreen GST-Six1/His-Eya2 binding, biochemical; active compounds read low; control for the full effect not named in the record. actives 0.56% (n = 360,000); in the data active = activity change below about -65%; inconclusive = about -30% to -65%; inactive = above about -30%; note: % is set by controls: 0 for no effect and ±100 for the full control effect
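AlphaScreen luminescence read after one hour at 37 °C in darkness. Pin-transferred compounds met GST-Six1 and His-Eya2 protein (5X stock 250 nM/500 nM) plus glutathione donor and Ni-chelate acceptor beads (5X, 50 ug/mL).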
TRPML1 ag: qHTS for Agonists of the Human Mucolipin Transient Receptor Potential 1 (TRPML1) | TRPML1-expressing cells, Ca2+ dye fluorescence, FDSS; host cell line not named in the record; reference of the full effect not given here | activation, % (test concentration not listed) | Mucolipin-1 (Homo sapiens), Q9GZU1 | actives 0.12% (n = 410,000); in the data active = activation above about 50%; inconclusive = about 30% to 50%; inactive = below about 30%; note: 0% is about no effect; the text of the record puts the active cut at 80%
Target sequence (Q9GZU1 whole entry, looked up): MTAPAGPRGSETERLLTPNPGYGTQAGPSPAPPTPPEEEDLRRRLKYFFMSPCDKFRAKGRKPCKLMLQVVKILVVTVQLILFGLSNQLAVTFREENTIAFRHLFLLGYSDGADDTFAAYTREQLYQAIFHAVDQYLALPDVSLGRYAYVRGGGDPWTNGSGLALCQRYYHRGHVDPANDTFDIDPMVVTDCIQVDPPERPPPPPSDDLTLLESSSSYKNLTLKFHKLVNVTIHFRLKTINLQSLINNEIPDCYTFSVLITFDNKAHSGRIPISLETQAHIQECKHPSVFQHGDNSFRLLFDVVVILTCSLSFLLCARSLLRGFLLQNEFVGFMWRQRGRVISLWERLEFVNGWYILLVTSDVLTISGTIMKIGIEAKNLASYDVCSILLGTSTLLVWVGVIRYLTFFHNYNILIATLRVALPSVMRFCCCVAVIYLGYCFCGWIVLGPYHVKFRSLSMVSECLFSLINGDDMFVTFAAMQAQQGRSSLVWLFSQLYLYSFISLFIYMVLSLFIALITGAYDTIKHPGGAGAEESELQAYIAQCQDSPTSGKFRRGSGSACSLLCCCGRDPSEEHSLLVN
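Tet-induced TRPML1-DL cells, 1,500 per well, cultured overnight, were loaded with a no-wash Ca2+ dye for 45–90 min. Calcium fluorescence was recorded on the FDSS for 110 s after compound addition, before the EC80 agonist (4 uM 54-4) was added.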
D2 PAM: Beta-Arrestin HTS for Positive Allosteric Modulators of the Human D2 Dopamine Receptor: Potentiators | potentiation, % (no concentration beside the values) | actives 0.23% (n = 360,000) | D(2) dopamine receptor (Homo sapiens), P14416 | DiscoveRx D2 beta-arrestin cells, luminescence, 90 min; 100% = 57 uM dopamine signal; active = potentiation of 50% or more; inconclusive = 30% to 50%; inactive = 30% or less;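 note: compound concentration not given in the record; tested on top of an EC20 dose of dopamine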
Target sequence (P14416 whole entry, looked up): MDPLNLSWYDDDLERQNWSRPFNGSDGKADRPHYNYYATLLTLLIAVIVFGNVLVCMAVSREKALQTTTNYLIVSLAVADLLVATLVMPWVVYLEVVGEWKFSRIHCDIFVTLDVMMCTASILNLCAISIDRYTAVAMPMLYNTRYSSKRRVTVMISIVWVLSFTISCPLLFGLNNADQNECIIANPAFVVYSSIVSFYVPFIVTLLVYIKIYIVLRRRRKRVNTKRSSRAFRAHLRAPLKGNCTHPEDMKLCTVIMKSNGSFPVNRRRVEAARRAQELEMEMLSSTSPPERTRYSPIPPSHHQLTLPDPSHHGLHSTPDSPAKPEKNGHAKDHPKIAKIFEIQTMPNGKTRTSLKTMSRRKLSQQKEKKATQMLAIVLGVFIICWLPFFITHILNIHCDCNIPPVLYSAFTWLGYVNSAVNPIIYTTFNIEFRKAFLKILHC
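PathHunter beta-arrestin assay in DiscoveRx D2 cells. Compounds were added with an EC20 of dopamine (50 nM final) for 90 min at 37 deg C. Luminescence was read 1 h after detection reagent, with 57 uM dopamine as the EC100 control.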
D2 ag: Beta-Arrestin HTS for Positive Allosteric Modulators of the Human D2 Dopamine Receptor: Agonists. D(2) dopamine receptor (Homo sapiens), P14416. DiscoveRx PathHunter D2 beta-arrestin, luminescence, 90 min; 100% = 57 uM dopamine signal. activation, % (concentration not given with the values). actives 0.084% (n = 360,000); in the data active = activation above about 40%; inconclusive = about 15% to 40%; inactive = below about 15%; note: compound concentration not given in the record; the text of the record calls up to 30% inactive
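Agonist mode: compounds alone added to overnight-plated D2 PathHunter cells for 90 min at 37 C, with 57 uM final dopamine (EC100) defining full response. Beta-arrestin recruitment detected by chemiluminescent reagent, read after 1 h at ambient temperature.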
PINK1 modulator: A Quantitative High throughput Screen to Identify Chemical Modulators of PINK1 Expression | actives 0.2% (n = 410,000) | Potency, µM (doses to about 76.6 µM), for the others: at the top dose activation (PINK1 increase), hits mostly activators | PINK1 immunofluorescence, high-content cytometry, 24 h | AID 624263, 2012; active = well fitted activation curve with a large enough effect; inconclusive = small, poorly fitted or top-dose-only effect; inactive = flat fitted curve, though single readings scatter; cell line not stated here;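 note: potency is the fitted concentration of half-maximal effect; % of control where 0% means no effect; nearly all actives have a fitted effect of over 65% in size; a mitochondrial uncoupler was the plate control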
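Compound titrations (5 concentrations, 24 h) on a stable cell line; DMSO and CCCP controls. Endpoint: fixed-cell PINK1 immunofluorescence with mitochondrial, cell and nuclear markers, scanned by microplate cytometer.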
Starred values were filed as active, the others as inactive; ? = inconclusive; . = not tested or not shown; & = joins results of further samples; [ ] = dose if it differs, or a comment.

SMILES | CtBP-E1A blk | Six1-Eya2 blk | TRPML1 ag | D2 PAM | D2 ag | PINK1 modulator
Cc1ccc(S(=O)(=O)c2c(C)nn(-c3ccccc3)c2OC(=O)c2ccco2)cc1 | 7.6 | 6.0 | -0.7 | -12.7 | -4.0 | -0.6%
Cc1cc(=O)n2[nH]cc(C(=O)O)c2n1 | 52.4 | 22.2 | -0.5 | -4.8 | -1.8 | 0.2%[38.3 µM]
CCCS(=O)(=O)N1CCC(CCOc2ccccc2)(C(=O)OCC)CC1 | -0.1 | 2.0 | -1.0 | -4.0 | -5.1 | 0.2%
O=C1c2ccccc2C(=O)N1CC1CO1 (stereo unspecified) | -21.1 | 0.4 | 1.7 | -1.1 | -1.7 | 1.4%
Cc1cnc(NC(=O)c2ccco2)s1 | -12.7 | 2.1 | -0.3 | 1.2 | -0.8 | -3.7%
CCc1cccc(NC(=O)C2CCCN2S(=O)(=O)c2ccc3c(c2)n(C)c(=O)c(=O)n3C)c1 (stereo unspecified) | -19.6 | 1.0 | 1.0&-0.4 | -2.6 | 0.3 | 1.0%&0.1%
N#Cc1ccccc1OCC(=O)Nc1ccc2c(c1)OCO2 | -3.5 | -7.3 | -0.4 | -16.6 | -2.2 | 0.7%
O=C(Nc1nc2ccccc2[nH]1)c1ccc(Br)o1 | 2.0 | -12.2 | 0.8 | 0.4 | -3.2 | 6.3%
CCOP(=O)(c1ccccc1)C1(C#N)CCCC1 (stereo unspecified) | 23.5 | 22.1 | 0.6 | -4.8 | -3.4 | -1.6%
COc1cccc(-n2nnc3c(=O)n(C/C=C/c4ccccc4)cnc32)c1 | -19.2 | -3.1 | 0.5 | -6.4 | -3.5 | 1.2%
CN(C)CCCOc1ccc(C(C)(C)c2ccccc2)cc1 | -4.5 | -2.5 | 0.0 | -24.6 | -3.1 | 5.9%
Cc1cccc(OCC(=O)Nc2nccs2)c1C | 9.9 | 10.0 | -0.6 | 0.6 | 1.3 | -0.3%
CN(C)c1ccc(C(CNC(=O)Cc2cccc3ccccc23)N(C)C)cc1 (stereo unspecified) | . | ? | 1.0 | -20.7 | -1.2 | -1.0%
COc1ccc(Cn2nnnc2C(c2ccccn2)N2CCN(c3cc(Cl)ccc3C)CC2)cc1 (stereo unspecified) | 8.0 | -9.7 | 74.3* | -0.9 | -3.6 | .
O=C(Nc1ccccc1OC(F)F)c1ccc(-n2cncn2)c([N+](=O)[O-])c1 | 1.4 | -8.0 | 0.2 | ? | 1.6 | -1.6%
CCSc1nc(-c2ccccc2)nc(C(Cl)Cl)n1 | 20.1 | 17.1 | 1.1 | -5.0 | -2.6 | 0.2%
COc1ccc(CNC(=O)C2CCN(S(=O)(=O)N3CCC(C)CC3)CC2)c(OC)c1 | -0.6 | 1.7 | 0.4&-0.8 | -11.4 | -1.0 | 1.4%&0.2%
CCOc1ccc(NC(=O)CN2C(=O)NC3(CCCC3)C2=O)cc1S(=O)(=O)N1CCCCC1 | . | -0.5 | 0.1 | 1.0 | -0.4 | -0.9%
CCN(Cc1nc2ccccc2n1C)c1ccccc1 | 1.3 | -4.0 | -0.4 | -3.7 | 4.2 | 1.6%
Cc1ccc(CNC(=O)C2CCC(=O)N(CC3CCCCC3)C2)o1 (stereo unspecified) | 1.9 | 5.3 | 0.1 | -7.1 | -5.8 | -1.6%
O=C(c1cc2c(c(-c3cccc(-c4ccc(F)cc4)c3)n1)[C@H](CCO)N(C(=O)c1ccc3c(c1)OCO3)C2)N1CCOCC1 | -8.6 | -14.8 | 0.1 | . | . | 0.4%
CC1Cc2ccccc2N1Cc1cc(=O)c(OCC(=O)Nc2ccccc2)co1 (stereo unspecified) | -4.4 | -2.1 | 2.5 | -10.5 | -2.2 | 3.6%
O=C1C2ON(c3ccc(Br)cc3)C(c3cccnc3)C2C(=O)N1C1CCCCC1 (stereo unspecified) | 5.9 | -8.3 | -0.6 | -0.3 | -1.5 | ?
COc1cc(CCC(=O)OCC(=O)N2CCc3ccccc32)cc(OC)c1OC | -1.2 | -3.1 | 0.7 | -21.1 | -1.1 | -1.4%

Filtered by structure, the entries above with an NH in an aromatic ring
SMILES | CtBP-E1A blk | Six1-Eya2 blk | TRPML1 ag | D2 PAM | D2 ag | PINK1 modulator
Cc1cc(=O)n2[nH]cc(C(=O)O)c2n1 | 52.4 | 22.2 | -0.5 | -4.8 | -1.8 | 0.2%[38.3 µM]
O=C(Nc1nc2ccccc2[nH]1)c1ccc(Br)o1 | 2.0 | -12.2 | 0.8 | 0.4 | -3.2 | 6.3%

Remaining list, next part
SMILES | CtBP-E1A blk | Six1-Eya2 blk | TRPML1 ag | D2 PAM | D2 ag | PINK1 modulator
Cn1c(=O)c(=O)n(C)c2cc(S(=O)(=O)N3CCC(N4CCCCC4)CC3)ccc21 | 0.0 | -0.5 | -1.3 | -9.3 | 5.6 | 0.8%
COc1ccc(NC(=O)/C=C2\SC(=O)NC2=O)cc1 | 4.0 | -8.1 | 0.5 | -4.7 | -0.1 | 1.6%
COC(=O)c1ccc(/C=N\N2CCN(Cc3ccc(C)cc3)CC2)cc1 | -0.6 | -5.6 | 1.8 | -6.3 | -3.1 | 1.7%[38.3 µM]
COCCN(CC(=O)Nc1cccc(C)c1C)C(=O)c1ccc2ccccc2n1 | 4.2 | 2.5 | -0.3 | -8.5 | -1.7 | 0.5%
CCN(CC)CCCNC(=O)Cn1ncc2c(=O)oc3ccc(C)cc3c21 | 4.0 | 0.5 | 0.3 | -1.6 | -2.5 | 0.2%
OC(COc1ccccc1)Cn1cc(Br)cn1 (stereo unspecified) | 4.3 | -0.4 | 0.4 | -1.2 | -2.9 | 3.8%
O=C(COC(=O)C1CC1)Nc1ncc(Cl)cc1Cl | -0.3 | -14.1 | 0.4 | -1.8 | -0.7 | 0.3%
Cc1cc(C)c(C)c(S(=O)(=O)N2CCN(c3ncnc4ccccc34)CC2)c1C | . | -3.7 | 1.3 | 1.9 | -1.2 | 2.9%
CS(=O)(=O)c1ccc(NC(=O)c2cc3c(cc2Cl)N2CCCCCC2=NS3(=O)=O)cc1 | -2.5 | 5.3 | 1.8 | -9.4 | 1.4 | 1.1%
Cc1nn(C)c(C)c1NS(=O)(=O)c1ccc(OC(F)(F)F)cc1 | 9.9 | -5.1 | 1.4 | 7.1 | -0.1 | 0.6%
CC(=O)c1cc2c(=O)c3ccccc3oc2nc1C | -1.7 | 4.1 | -0.5 | -14.9 | -4.8 | 2.6%
CN(CC(=O)Nc1n[nH]c(=S)s1)S(=O)(=O)c1cccc2cccnc12 | . | -1.6 | 0.7 | -5.5 | 2.9 | 1.0%
O=C(CN1C(=O)NC(Cc2ccccc2)C1=O)Nc1ccccc1F (stereo unspecified) | 11.6 | -3.5 | -0.6 | -10.8 | -5.8 | 2.0%
c1csc(C2Nc3ccccc3-c3nc4ccccc4n32)c1 (stereo unspecified) | 14.6 | -12.0 | 5.5 | -18.8 | -0.4 | 16.7%
COc1ccc(CCNC(=O)CN2CCN(c3cccc(Cl)c3)CC2)cc1OC | -10.8 | -16.3 | 0.2 | -10.4 | 1.9 | -3.3%
CC(C)(C)NC(=O)CSc1nnc(NC(=O)c2ccccc2Cl)s1 | -15.6 | -4.2 | 0.8 | -9.7 | -1.8 | 0.5%
COc1ccc(-c2csc(NC(=O)C3=NN(c4ccccc4)C(=O)CC3)n2)cc1 | 2.4 | 2.0 | 0.0 | 8.7 | 4.6 | 6.1%
CCn1c(SCC(=O)Nc2nccs2)nnc1-c1ccc(S(=O)(=O)N2CCCCCC2)cc1 | -11.2 | -1.4 | 0.8 | -10.2 | 0.2 | 1.8%
COc1cc(NC(=O)c2cccc(F)c2)ccc1NC(=O)c1cc2ccccc2o1 | 9.0 | 7.5 | -1.4&1.1 | -5.2 | -2.0 | 12.9%&1.1%
COc1ccc(N2C(=O)CC(Sc3nnnn3-c3ccc(F)cc3)C2=O)cc1 (stereo unspecified) | 11.5 | 4.4 | -0.3 | -14.9 | -5.6 | -0.3%
COc1ccccc1-n1c(C)nnc1SCC(=O)NCc1ccccc1 | 6.2 | 3.9 | 0.0 | -14.6 | -2.2 | -5.0%[38.3 µM]
O=C(NCc1ccccc1)c1c(Cl)nc(Cl)c(Cl)c1Cl | -3.7 | -2.6 | -0.5 | -4.5 | 0.3 | -2.2%
Cc1cc(Nc2ccc(C(=O)N3CCCCC3)cc2)c2cccc(C)c2n1 | 1.8 | 2.3 | 1.3 | -0.9 | -0.3 | 0.8%
CCN(CC)S(=O)(=O)c1cc(NC(=O)c2cc(-c3ccccn3)nc3ccccc23)ccc1C | -6.3 | -10.0 | -0.4 | 0.3 | 9.4 | 3.4%

A portion of the results above, as a working copy:
SMILES | CtBP-E1A blk | Six1-Eya2 blk | TRPML1 ag | D2 PAM | D2 ag | PINK1 modulator
CC(C)(C)NC(=O)CSc1nnc(NC(=O)c2ccccc2Cl)s1 | -15.6 | -4.2 | 0.8 | -9.7 | -1.8 | 0.5%
COc1ccc(-c2csc(NC(=O)C3=NN(c4ccccc4)C(=O)CC3)n2)cc1 | 2.4 | 2.0 | 0.0 | 8.7 | 4.6 | 6.1%

(more compounds)
SMILES | CtBP-E1A blk | Six1-Eya2 blk | TRPML1 ag | D2 PAM | D2 ag | PINK1 modulator
CCCC(C(=O)NC1CCCC1)N(CCCN1CCOCC1)C(=O)c1snc(C(N)=O)c1N (stereo unspecified) | 2.7 | 3.3 | 0.7 | -14.9 | -2.6 | 0.9%[38.3 µM]
O=C(Cc1ccccc1)Nc1nc(=O)c2ccccc2s1 | 7.4 | 23.5 | 0.4 | -21.6 | -3.2 | -1.1%
Cc1ccc(C)c(NC(=O)CN(C)C(=O)c2cccc(S(=O)(=O)N(C)C)c2)c1 | 0.8 | 0.8 | 0.7 | -4.9 | -0.1 | 0.0%
Cc1ccc2[nH]c(=O)c(COC(=O)c3ccccn3)cc2c1 | -5.7 | 11.3 | 0.1 | -0.4 | 4.1 | -3.9%
Cc1ccc(S(=O)(=O)N2CCN(Cc3nc4ccccc4[nH]3)CC2)cc1C | -2.4 | 1.0 | 4.5 | 4.3 | 0.8 | 1.6%
CCOC(=O)C1=C(C)NC2=C(C(=O)CC(C)(C)C2)C1c1ccc2c(c1)CCCN2C (stereo unspecified) | -13.2 | -26.1 | -0.3 | -29.6 | -2.8 | 7.2%
COc1ccc(NC(=O)c2ccco2)cc1S(=O)(=O)N1CCOCC1 | -3.1 | -7.6 | 1.4 | -3.3 | 1.8 | ?
O=C(O)C1Nc2ccc(C(F)(F)F)cc2C2OCCC12 (stereo unspecified) | 4.2 | 1.8 | 0.3 | -5.3 | -1.1 | -0.1%
COC(=O)c1ccccc1NC(=O)c1cn(-c2ccc(C)c(C)c2)c(=O)c2ccccc12 | -1.1 | 5.9 | 2.7 | -5.6 | 3.5 | 0.4%
COc1cccc(NC(=O)N2CCCC2C(=O)NC23CC4CC(CC(C4)C2)C3)c1 (stereo unspecified) | 0.0 | 9.3 | -1.2 | -5.5 | -2.0 | 2.9%
